Assay outcomes deposited in PubChem BioAssay by several laboratories.
CSC inhib: cancer stem cell inhibition; cancer stem cell-like cells viability, luminescence; inhibition, % at 7.5 µM; hit rate 1.1% among 300,000; AID 2717;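 active = mean at 75% or more and at least half the replicates too; inconclusive = mean and replicates disagree; tested in HMLE shEcad cells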;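 also: 0% = median of negative and 100% = median of positive control wells; the first replicate is given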
MT1-MMP act inh: blocks activation of human MT1-MMP | P50281 | HT1080 RFP-PRO-GFP cells, GFP/RFP ratio fluorescence, overnight; percent of plate control window, DMSO zero | GFP/RFP ratio change, % at 20 µM | hit rate 0.061% among 360,000;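 active = GFP/RFP ratio change of at least 30% with cell ATP level not reduced by more than half and red fluorescence within 50% of control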; also: strong numbers were not always called active
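system = RFP-PRO-GFP reporter HT1080 cells | dosing = 20 µM single dose, 1% DMSO | timing = overnight cell settling, then overnight compound exposure, 37 °C, 5% CO2 | read-out basis = GFP/RFP fluorescence ratio | controls = DMSO and RFP-L50D-GFP cell wells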
eIF4H inh: inhibitors of RNA binding by human eIF4H; AID 2012; hit rate 0.94% among 290,000; eIF4H fluorescence polarization binding assay; Q15056; inhibition, % at 35 µM;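 active = 50% or more with normal probe brightness, or confirmed in later tests; inconclusive = above 50% with abnormal brightness, or retests that disagree; inactive = below 50% or failed in later tests; about a fifth of its hits are not listed in these tables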;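 also: calls also rest on retests at 20 µM and on dose response follow-up; 0% = protein and probe with vehicle and 100% = probe without protein; strong numbers were not always called active; many hits fall short of the cut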
UUG fidelity: yeast start codon fidelity modulation; S. cerevisiae UUG-firefly luciferase reporter, luminescence/redox ratio; activity score, % at 18.7 µM; hit rate 0.13% among 350,000;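 active = replicate mean at a twofold rise or more, about +100% in these data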;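 also: firefly luciferase made from a UUG start codon reports start codon fidelity; reporter light over untreated wells divided by growth signal over untreated wells; some hits fall short of that in this replicate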
Rce1 inh: blocks yeast Ras-converting enzyme. yeast membranes, quenched prenylated peptide cleavage fluorescence. AID 2563. hit rate 0.27% among 290,000. Q03530. calls only;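 active = fall in fluorescence gain of 50% or more versus controls, with final raw signal at or below 3038400; inconclusive = same 50% fall but final raw signal above 3038400; inactive = fall in fluorescence gain under 50%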;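 also: plate controls were neutral control wells for no effect and wells lacking membranes for full effect; tested at 10 µM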
PABP FP inh: blocks human PABP binding to poly(A) RNA; AID 2014; inhibition, % at 35 µM; fluorescence polarization; hit rate 1% among 290,000; P11940;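 active = 50% or more with normal probe brightness, or confirmed in later tests; inconclusive = above 50% with abnormal brightness, or retests that disagree; inactive = below 50% or failed in later tests; about a fifth of its hits are not listed in these tables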;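 also: calls also rest on retests at 20 µM and on dose response follow-up; controls were probe without protein and protein plus probe with vehicle; some compounds called inactive have numbers as strong as hits; many hits fall short of the cut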
Target sequence (P11940 whole entry, looked up): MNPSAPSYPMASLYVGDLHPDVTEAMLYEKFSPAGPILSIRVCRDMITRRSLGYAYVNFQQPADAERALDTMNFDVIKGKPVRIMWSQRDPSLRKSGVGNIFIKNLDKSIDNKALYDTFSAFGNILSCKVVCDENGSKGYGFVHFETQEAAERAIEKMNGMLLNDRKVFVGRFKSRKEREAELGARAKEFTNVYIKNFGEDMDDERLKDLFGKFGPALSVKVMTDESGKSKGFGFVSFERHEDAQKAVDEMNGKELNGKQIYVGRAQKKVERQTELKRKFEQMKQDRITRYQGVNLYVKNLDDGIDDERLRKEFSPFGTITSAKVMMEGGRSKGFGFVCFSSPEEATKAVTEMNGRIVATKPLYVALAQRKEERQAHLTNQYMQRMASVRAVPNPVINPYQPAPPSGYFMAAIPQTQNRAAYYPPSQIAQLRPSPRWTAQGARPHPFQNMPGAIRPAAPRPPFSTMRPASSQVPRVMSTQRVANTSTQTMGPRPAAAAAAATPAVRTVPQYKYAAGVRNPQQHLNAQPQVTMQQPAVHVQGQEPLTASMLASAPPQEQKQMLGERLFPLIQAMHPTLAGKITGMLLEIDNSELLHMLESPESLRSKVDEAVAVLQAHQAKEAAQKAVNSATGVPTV
Env fusion inh: blocks HIV Env-driven cell-cell fusion. HeLa-JRFL Env/CEM21 cell fusion, luciferase. inhibition, % at 12.3 µM. hit rate 1.1% among 360,000;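 active = mean replicate inhibition score of at least 50 and every replicate individually at or above 50; inconclusive = only one of the two criteria met; inactive = mean below 50 and not all replicates reaching 50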;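 also: 0% = plate neutral controls and 100% = maraviroc near 300 nM; one replicate is shown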
eIF4H inh retest: also measured in eIF4H inh; calls as there; inhibition, %; compound at 20 µM; confirmation average;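 mean of two retest wells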
PABP FP inh retest: further read-out of PABP FP inh, marked with its call; inhibition, %; compound at 20 µM; confirmation repeats;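 mean of two retest wells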
MT1-MMP act inh RFP: also measured in MT1-MMP act inh; calls as there; RFP signal change, %; measured here: RFP expression control read;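 0 = vehicle wells; hits needed this value within 50% of zero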
Active calls of the source: *; i = inactive; ? = inconclusive; . = no result given; + = active, no number; & = joins results of further samples; [ ] = remark or other dose. An excerpt. The share of hits here may be higher or lower than overall.

SMILES	CSC inhib	MT1-MMP act inh	MT1-MMP act inh RFP	eIF4H inh	UUG fidelity	Rce1 inh	PABP FP inh	Env fusion inh	others
CCCCn1c(N)c(N(CC(C)C)C(=O)COC(=O)Cc2c(C)nc3ccccc3c2C)c(=O)[nH]c1=O	-8	-2	-2	72	-5	i	-8	6	eIF4H inh retest=12;PABP FP inh retest=11
CSc1ccccc1NC(=O)CN(c1cccc(C)c1)S(C)(=O)=O	1	4	6	0	.	i	8	.
Cc1ccc(NC(=O)CCNS(=O)(=O)c2ccc(Br)s2)cc1	62	0	0	7	-12	i	16	13
CCCCn1c(SCC(=O)Nc2cc(C)on2)nnc1-c1ccncc1	-8	-2	-1	-15	.	i	6	-10
Cc1cccc2cc(-c3nc4c(C)cccn4c3NCc3ccco3)c(=O)[nH]c12	22	-6	1	5	2	i	5	.
COc1ccc(CC(=O)OCC(=O)N2c3ccccc3CC2C)cc1OC (stereo not drawn)	.	1	5	.	-4	.	.	2
Cc1nc2c(C#N)cnn2c2c1CCNN2C	-10	-5	0	14	-18	i	-15	4
Cn1c(SCC(=O)c2cccs2)nnc1-c1ccco1	.	2	1	6	.	i	-8	.
CCC(OC(=O)c1ccco1)C(=O)NCc1ccco1 (stereo not drawn)	-1	12	2	7	10	.	-5	-132
Cc1cc2c(c(=O)n1Cc1ccco1)C(c1cccnc1)C(C#N)=C(N)O2 (stereo not drawn)	9	-2	-5	124*	-11	i	123*	-4	eIF4H inh retest=51*;PABP FP inh retest=80*
CCCn1c(-c2cccs2)nc2c1c(=O)[nH]c(=O)n2Cc1ccccc1	-7	6	0	-2	-4	i	21	5
OCC[C@H]1NCc2cc(CO)cc(-c3ccccc3)c21	.	-5	0	.	-2	.	.	-12
Cc1c(C(=O)NC(=S)Nc2cccnc2)cccc1[N+](=O)[O-]	-9	-1	1	0	-4	i	5	5
COc1ccc(Cc2noc(CN3CCN(c4ccc(Cl)cn4)CC3)n2)cc1OC	-12	3	-27	2	-9	i	4	17
C=CCOc1cc(OC)c(OC)c(OC)c1	11	4	4	-6	-23	i	-3	-13
O=c1[nH]ncc(N/N=C/c2ccccc2)c1Cl	.	19	8	-8	-7	i	-14	46
Cc1cccc(NC(=O)Nc2c(C)n(C)n(-c3ccccc3)c2=O)c1C	-5	2	4	1	-2	i	-4	-1
CCOc1ccc(N/C=C\C(=O)c2ccc3c(c2)OCO3)cc1	5	-4	-2	.	.	i	.	.
COc1ccc(C(c2nnnn2Cc2ccc(F)cc2)N2CCN(c3ccc(OC)cc3)CC2)cc1 (stereo not drawn)	.	-12	-13	1	0	.	1	.
NS(=O)(=O)c1ccc(CCNC(=O)C2COc3ccccc3O2)cc1 (stereo not drawn)	.	0	-4	-4	-10	i	7	-7
O=C(COC(=O)c1ccc(O)cc1)Nc1ccc(N2CCCCC2)cc1	1	0	3	6	7	i	-4	-15
COc1ccc(NC(=O)c2cccnc2Sc2ccccc2)c(OC)c1	-7	8	7	-1	.	i	5	9
Cc1ccc(NC(=O)CNC2CCCCC2)cc1Cl	6	6	0	-5	-7	i	0	9
CCN(C(=O)COC(=O)c1cc(-c2ccccc2)nc2ccc(Br)cc12)C1CCS(=O)(=O)C1 (stereo not drawn)	.	-6	-3	7	.	i	-2	10
O=C(CSc1nnc(NCc2ccccc2)s1)N1CCOCC1	17	5	7	12	-19	i	6	18
COc1ccc(-c2cc(C(F)(F)F)nc(-n3ccnc3)n2)cc1	-4	-5	-2	-10	.	i	9	14
CC1CCCN(CCC(=O)c2ccc(Br)cc2)C1 (stereo not drawn)	-1	4	6	-5	1	.	1	.
COc1ccc(NC(=O)C2CCCN(S(=O)(=O)c3cccc4cccnc34)C2)c(OC)c1 (stereo not drawn)	-3	2	-3	-4	4	i	4	15
CC(C)CN(C(=O)CSc1nnc2ccccn12)c1c(N)n(CC(C)C)c(=O)[nH]c1=O	-2	3	6	9	-15	i	6	.
CN1CCN(C(=O)CN(CCc2ccccc2)S(C)(=O)=O)CC1	.	-3	2	-2	-7	i	-8	-66
O=C(Nc1ccc(Cl)c(Cl)c1)N(Cc1cccnc1)Cc1ccco1	8	3	-9	2	-11	i	11	-6
NC(=O)c1nsc(C(=O)N(Cc2ccc(F)cc2)C(C(=O)NCC2CCCO2)c2ccc(O)cc2)c1N (stereo not drawn)	.	0	-2	-2	11	i	4	4
COc1ccc(Cn2c3ccc(OC)cc3c3nc4ccccc4nc32)cc1	?	-12	2	?	-18	i	-6	6
Cn1c(SCc2cccc(C(F)(F)F)c2)nnc1-c1ccco1	-1	10	-3	-13	-12	i	-2	-37
COCCNC(=S)N1CCN(c2nc(-c3cccc(OC)c3)cs2)CC1	-6	-1	-1	0	-7	i	16	2
COc1ccc2cc(CCNC(=O)C3CC3)c(=O)[nH]c2c1	0	4	3	4	.	i	-5	.
CCCn1c(SCC(=O)Nc2nc3ccccc3s2)nc2c1c(=O)n(C)c(=O)n2C	4	-6	-8	-14	-24	i	-3	64*
Cc1ccc(NC(=S)NCC2CCN(C(C)c3ccccc3)C2)cc1 (stereo not drawn)	-8	10	6	2	-27	i	14	-12
O=C(Nc1ccccc1Cl)c1cc(S(=O)(=O)N2CCC3(CC2)OCCO3)ccc1F	.	-1	-8	.	-6	.	.	15
Cc1ccc(NC(=O)COC(=O)c2sccc2C)cc1S(=O)(=O)N1CCOCC1	.	4	0	-6	.	i	5	0
CCCCCCCCCCOC(=O)Cn1c(COc2cccc(C)c2)[n+](C)c2ccccc21	169*	-3	-31	18	-13	i	19	26
CCC/C(O)=C1\C(=O)CC(c2ccccc2)CC1=NC(C)C(=O)O (stereo not drawn)	-14	0	1	-7	28	i	-11	13
CCN(Cc1ccccc1)S(=O)(=O)c1ccc(C(=O)N(CCCN(C)C)c2nc3cc(C)cc(C)c3s2)cc1	102*	-3	-5	.	-4	+	.	-10
C[C@H]1CN([C@@H](C)CO)C(=O)c2cc(NC(=O)C3CCCCC3)ccc2O[C@H]1CN(C)C(=O)Nc1ccc2c(c1)OCO2	-14	0	0	.	10&9	.	.	17[16.7 µM]
N#C/C(=C(O)\C=C\c1ccccc1)c1nc2ccccc2[nH]1	17	1	-2	3	-12	i	0	-5
CCOC(=O)Cc1csc(NC(=O)CCc2ccccc2)n1	-13	2	-4	-3	-12	i	5	0
CC1(C)COCN1C(=O)c1ccc(C#N)cc1	-6	-2	-1	-8	3	i	-1	8
COc1cc(/C=C2/NC(=O)N(CC(=O)Nc3ccc(C)cc3)C2=O)ccc1Oc1ccc([N+](=O)[O-])cn1	-9	2	2	4	.	i	5	23
COc1ccc(CCNC(=O)C2CCN(S(=O)(=O)c3ccc(SC)cc3)CC2)cc1	-15	8	-2	-2	-5	i	-7	-10
Cc1ccc(C(=O)NCCN2CCOCC2)c(Cl)c1	0	1	2	5	-14	.	16	4

(further entries)
SMILES	CSC inhib	MT1-MMP act inh	MT1-MMP act inh RFP	eIF4H inh	UUG fidelity	Rce1 inh	PABP FP inh	Env fusion inh	others
CCCCc1nnc(SC(C)C(=O)Nc2nccs2)n1C (stereo not drawn)	-13	-1	0	-10	-4	i	3	0
C/C(CC(=O)Nc1ccc(N(C)C)cc1)=N\NC(=O)c1ccc(C(C)(C)C)cc1	-7	-2	1	0	-5	i	0	8
CCCCC(=O)Nc1cc(OCC)c(NC(=S)NC)cc1OCC	15	0	1	-2	-13	i	24	8
Cc1cc2nc(=O)c(/C=C3\C=Nc4ccccc43)c(N)n2o1	1	-23	6	-13	-12	i	-12	-15
O=c1cc(CSc2ccccn2)c2ccccc2[nH]1	-4	-2	0	3	-1	.	-2	.
O=C(NCc1ccccc1)c1cccc(F)c1F	-3	-2	3	8	-18	i	2	-3
COc1ccccc1NC(=O)CCNC(=O)Cn1ccc2ccccc2c1=O	-23	0	1	-2	-2	i	-6	-20
Cc1ccccc1-c1nn(-c2ccc(F)cc2F)cc1CNCC(C)O (stereo not drawn)	-12	0	5	0	5	i	8	-29
CC1(C(=O)N2CCC(CO)(Cc3cccc(C(F)(F)F)c3)CC2)CC1	10	7	-12	-12	3	i	4	4
O=C(CCC(=O)N1CCN(Cc2ccc(F)cc2)CC1)Nc1nnc(C(F)(F)F)s1	-11	-2	-15	-10	5	i	11	-3
Cc1cc(N(CN2CCCC2=O)C(=O)c2ccccc2)no1	-5	-1	2	-9	-8	i	-7	-23
FC(F)(F)c1cnc(Oc2ccccc2-c2nnco2)c(Cl)c1	9	6	7	2	-6	i	4	.
COC1(C)CC2C(CC1OC(=O)c1cc([N+](=O)[O-])cc([N+](=O)[O-])c1)C2(C)C (stereo not drawn)	-9	-6	-7	-1	1	i	7	20
COc1cc([N+](=O)[O-])ccc1N=Nc1c(N)[nH]n(-c2ccccc2)c1=O	-13	8	1	4	.	i	11	6
COc1ccccc1CNC(=O)CN1C(=O)NC2(CCCc3sccc32)C1=O (stereo not drawn)	.	-3	-3	.	-7	.	.	3
CCCS(=O)(=O)N1CCC(C(=O)NCCC(C)C)CC1	-3	0	-1	-1	.	i	10	-4
CC(Cc1cccnc1)NC(=O)c1cc(COc2c(F)cccc2F)on1 (stereo not drawn)	-7	0	-4	-10	-16	i	-2	-5
CCOc1ccc(S(=O)(=O)N2CCC(C(=O)OC(C)C(=O)N3CCOCC3)CC2)cc1 (stereo not drawn)	-17	1	1	.	0	i	.	-10
COc1cccc(N2CCN(CC(=O)NC(=O)NC3CCCCC3)CC2)c1	.	1	1	.	-7	.	.	?
CC1CN(S(=O)(=O)c2cccc(C(=O)N3CCC(C(N)=O)CC3)c2)CC(C)O1 (stereo not drawn)	-14	1	1	.	-14	.	.	-87
CC(C)(C)OC(=O)N/N=C/c1ccc(C(=O)O)cc1	.	2	3	-4	.	i	1	.
COc1ccc(C2/C(=C(/O)c3ccccc3)C(=O)C(=O)N2CO)cc1 (stereo not drawn)	2	-3	-2	-11	-20	i	1	.
Cc1cc(OCC(=O)Nc2ccc(CN3CCOCC3)cc2)ccc1Cl	14	7	-1	-6	17	i	-1	5
CCCN(C(=O)Cc1csc(-c2ccccc2)n1)C1CCS(=O)(=O)C1 (stereo not drawn)	-10	-2	1	.	8	.	.	.
Cc1cc(NC(=O)CCN2CCN(Cc3ccccc3)CC2)ccc1Br	10	2	2	-10	21	i	1	6
O=C(N=Nc1c(O)[nH]c2ccccc12)c1cccc(S(=O)(=O)N2CCCCC2)c1	-13	1	0	-5	.	i	-3	13
O=C(Oc1ccc(-c2nnco2)cc1)N1CCCCC1	-11	2	1	-13	-24	i	-10	.
Cc1ccccc1OCCSCc1nc2ccccc2[nH]1	50	8	-4	-10	.	i	-6	4
COc1ccc(NC(=O)CSc2ccc3nnc(-c4ccccn4)n3n2)c(OC)c1	-21	1	-4	8	-29	i	10	18
NC(=O)COc1cccc2cccnc12	0	6	2	-10	-14	i	6	.
COc1cccc(-n2ccnc2SCC(=O)N2CCc3ccccc32)c1	-9	1	-2	1	-9	i	9	.
Cc1cc2oc(=O)cc(CN(C)Cc3ccc(OC(F)F)cc3)c2cc1Cl	20	-2	-4	-2	-21	i	3	12
COc1ccc2c(c1)C(C)=CC(C)(C)N2C(=O)Nc1ccccc1	6	-2	7	?	-10	i	-19	.
